Six1-Eya2 blk: qHTS Assay for Inhibitors of the Six1/Eya2 Interaction | Homeobox protein SIX1 (Homo sapiens) + Protein phosphatase EYA2 (Homo sapiens), … | AlphaScreen GST-Six1/His-Eya2 binding, biochemical; hits give low values; control for the full effect not named in the record | activity change, % (test concentration not listed) | actives 0.56% (n = 360,000) | AID 651725, 2012; in the data active = activity change below about -65%; inconclusive = about -30% to -65%; inactive = above about -30%; note: % is set by controls: 0 for no effect and ±100 for the full control effect; compound concentration not given in the record
Target sequence (O00167 whole entry, looked up): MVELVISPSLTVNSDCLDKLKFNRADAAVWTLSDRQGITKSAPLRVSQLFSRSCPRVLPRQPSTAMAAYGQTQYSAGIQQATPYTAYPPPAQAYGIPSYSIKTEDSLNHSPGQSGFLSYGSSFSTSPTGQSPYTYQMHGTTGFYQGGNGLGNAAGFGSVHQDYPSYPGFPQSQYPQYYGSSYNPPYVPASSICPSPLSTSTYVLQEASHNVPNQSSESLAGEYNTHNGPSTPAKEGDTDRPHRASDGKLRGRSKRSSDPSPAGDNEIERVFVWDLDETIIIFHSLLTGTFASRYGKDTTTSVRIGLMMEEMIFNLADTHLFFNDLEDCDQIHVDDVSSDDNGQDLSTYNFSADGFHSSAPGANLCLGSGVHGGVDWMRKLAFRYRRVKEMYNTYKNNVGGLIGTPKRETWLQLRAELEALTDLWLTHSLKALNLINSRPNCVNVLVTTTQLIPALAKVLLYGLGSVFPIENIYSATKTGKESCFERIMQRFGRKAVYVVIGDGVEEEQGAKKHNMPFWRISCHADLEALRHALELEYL
Target sequence (Q15475 whole entry, looked up): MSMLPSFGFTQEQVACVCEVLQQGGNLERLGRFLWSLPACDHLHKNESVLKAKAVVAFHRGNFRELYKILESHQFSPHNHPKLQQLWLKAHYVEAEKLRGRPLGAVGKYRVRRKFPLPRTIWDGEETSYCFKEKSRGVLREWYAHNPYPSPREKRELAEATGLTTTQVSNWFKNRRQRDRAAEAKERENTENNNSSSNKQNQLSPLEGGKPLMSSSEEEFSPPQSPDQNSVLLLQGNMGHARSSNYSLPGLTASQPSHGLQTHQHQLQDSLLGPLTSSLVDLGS
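AlphaScreen with GST-Six1 and His-Eya2 (5X mix: 250 nM and 500 nM), glutathione donor and nickel acceptor beads; buffer 50 mM Tris pH 8.0, 300 mM NaCl, 1 mM TCEP; 1 h at 37 C in the dark.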
TRPML1 ag: qHTS for Agonists of the Human Mucolipin Transient Receptor Potential 1 (TRPML1); Mucolipin-1 (Homo sapiens), Q9GZU1; TRPML1-expressing cells, Ca2+ dye fluorescence, FDSS; host cell line not named in the record; reference of the full effect not given here; activation, % (concentration not given with the values); actives 0.12% (n = 410,000); AID 624414, 2012; in the data active = activation above about 50%; inconclusive = about 30% to 50%; inactive = below about 30%; note: 0% is about no effect; the text of the record puts the active cut at 80%
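Agonist activity was taken from a 110 s kinetic Ca2+ dye read on the FDSS after pinning compounds onto TRPML1-DL cells. The cells were seeded at 1,500/well with Tet inducer, incubated about 16 h, then dye-loaded at room temperature.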
TRPML1 inh: qHTS for Inhibitors of the Human Mucolipin Transient Receptor Potential 1 (TRPML1) | Mucolipin-1 (Homo sapiens), Q9GZU1 | TRPML1-inducible cells, Ca2+ dye fluorescence, FDSS; hits give low values; inhibition of EC80 agonist-evoked calcium signal | activity change, negative = inhibition, % (concentration not given with the values) | actives 0.02% (n = 390,000) | AID 624415, 2012; in the data active means activity change below about -50%; inconclusive means about -30% to -50%; inactive means above about -30%;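 note: stimulus is agonist 54-4 at its EC80 concentration; % is set by controls: 0 for no effect and ±100 for the full control effect; compound concentration not given in the record; the text of the record puts the active cut at -80%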
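Calcium fluorescence in TRPML1-DL cells induced overnight with Tet: a 110 s read after compound pin addition, then a 110 s antagonist read after challenge with 54-4 at 4 uM final (EC80).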
D2 PAM: Beta-Arrestin HTS for Positive Allosteric Modulators of the Human D2 Dopamine Receptor: Potentiators; actives 0.23% (n = 360,000); D(2) dopamine receptor (Homo sapiens), P14416; potentiation, % (test concentration not listed); DiscoveRx D2 beta-arrestin cells, luminescence, 90 min; 100% = 57 uM dopamine signal; active = potentiation of 50% or more; inconclusive = 30% to 50%; inactive = 30% or less;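 note: compound concentration not given in the record; tested on top of an EC20 dose of dopamine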
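PathHunter beta-arrestin assay in DiscoveRx D2 cells. Compounds were added with an EC20 of dopamine (50 nM final) for 90 min at 37 deg C. Luminescence was read 1 h after detection reagent, with 57 uM dopamine as the EC100 control.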
D2 agonist: Beta-Arrestin HTS for Positive Allosteric Modulators of the Human D2 Dopamine Receptor: Agonists | D(2) dopamine receptor (Homo sapiens), P14416 | DiscoveRx PathHunter D2 beta-arrestin, luminescence, 90 min; 100% = 57 uM dopamine signal | activation, % (no concentration beside the values) | actives 0.084% (n = 360,000); in the data active = activation above about 40%; inconclusive = about 15% to 40%; inactive = below about 15%; note: compound concentration not given in the record; the text of the record calls up to 30% inactive
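Agonist mode: compounds alone added to overnight-plated D2 PathHunter cells for 90 min at 37 C, with 57 uM final dopamine (EC100) defining full response. Beta-arrestin recruitment detected by chemiluminescent reagent, read after 1 h at ambient temperature.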
PINK1 expr mod: A Quantitative High throughput Screen to Identify Chemical Modulators of PINK1 Expression | PINK1 immunofluorescence, high-content cytometry, 24 h | Potency, µM (highest dose often 76.6 µM), inactives show at the highest dose activation (PINK1 increase), most hits filed as activators | actives 0.2% (n = 410,000) | AID 624263, 2012; active = well fitted activation curve with a large enough effect; inconclusive = small, poorly fitted or top-dose-only effect; inactive = flat fitted curve, though single readings scatter; cell line not stated here;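 note: potency is the fitted concentration of half-maximal effect; % of control where 0% means no effect; nearly all actives have a fitted effect of over 65% in size; a mitochondrial uncoupler was the plate control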
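Measures PINK1 amount and localization on or inside mitochondria by immunofluorescence. Stable cells get compounds at 5 concentrations for 24 hours before fixation and staining; CCCP controls included.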
Numbers without * were called inactive; ? = inconclusive; nt = no result given; [ ] = dose if it differs, or a comment.

cpd	mol	PINK1 expr mod	TRPML1 inh	D2 PAM	Six1-Eya2 blk	D2 agonist	TRPML1 ag
1	COc1ccccc1C(=O)NC(=O)COC(=O)c1cnccn1	-1.0%	-3.3	-8.9	2.8	-3.9	0.0
2	Cc1ccc(NC(=O)C2CC(=O)N/C(=N/NC(=O)c3ccc(C)cc3)S2)cc1 (stereo unspecified)	-1.6%	4.9	-17.0	-6.2	-2.4	1.1
3	O=C(CCc1nc2ccccc2c(=O)[nH]1)Nc1ccc(F)cc1	1.8%	-14.4	-21.3	1.0	-0.6	1.8
4	COc1ccc(/C=N/NC(=O)CNC(=O)c2ccncc2)cc1	-1.1%	5.4	-3.6	4.0	-1.6	-0.6
5	CC(C)Cc1nnc(NC(=O)CCC(=O)N2CC(C)CC(C)C2)s1 (stereo unspecified)	0.6%	2.4	-5.0	9.5	-7.7	0.3
6	CC(C)C(=O)NNC(=O)CN1CCN(c2nc(-c3ccccc3)cs2)CC1	1.5%	6.8	-2.2	-4.6	-3.1	-0.5
7	O=C(O)c1cccc(S(=O)(=O)N(Cc2ccccc2)c2cccc(C(F)(F)F)c2)c1	-1.7%	7.6	2.6	-13.7	-1.0	0.0
8	CC(C)(C)/C(O)=C/c1nc2ccccc2oc1=O	2.8%	-14.2	3.0	-8.7	0.4	1.3
9	CC(=O)Nc1cccc(Oc2nc(NCC3CC3)nc3ccsc23)c1	1.6%	nt	5.3	-1.6	-1.0	-0.6
10	O=Cc1ccc([B-](F)(F)F)s1	-0.2%	19.9	nt	5.2	-2.5	0.5

Exported with one line to a screen: six of the compounds above.
5	CC(C)Cc1nnc(NC(=O)CCC(=O)N2CC(C)CC(C)C2)s1 (stereo unspecified)
3	O=C(CCc1nc2ccccc2c(=O)[nH]1)Nc1ccc(F)cc1
7	O=C(O)c1cccc(S(=O)(=O)N(Cc2ccccc2)c2cccc(C(F)(F)F)c2)c1
10	O=Cc1ccc([B-](F)(F)F)s1
2	Cc1ccc(NC(=O)C2CC(=O)N/C(=N/NC(=O)c3ccc(C)cc3)S2)cc1 (stereo unspecified)
6	CC(C)C(=O)NNC(=O)CN1CCN(c2nc(-c3ccccc3)cs2)CC1

| entry no. | 5 | 3 | 7 | 10 | 2 | 6 |
| --- | --- | --- | --- | --- | --- | --- |
| PINK1 expr mod | 0.6% | 1.8% | -1.7% | -0.2% | -1.6% | 1.5% |
| TRPML1 inh | 2.4 | -14.4 | 7.6 | 19.9 | 4.9 | 6.8 |
| D2 PAM | -5.0 | -21.3 | 2.6 | nt | -17.0 | -2.2 |
| Six1-Eya2 blk | 9.5 | 1.0 | -13.7 | 5.2 | -6.2 | -4.6 |
| D2 agonist | -7.7 | -0.6 | -1.0 | -2.5 | -2.4 | -3.1 |
| TRPML1 ag | 0.3 | 1.8 | 0.0 | 0.5 | 1.1 | -0.5 |

Entries of single compounds, quoted from the list:
`CC(=O)Nc1cccc(Oc2nc(NCC3CC3)nc3ccsc23)c1` is listed with PINK1 expr mod = 1.6%; TRPML1 inh = nt; D2 PAM = 5.3; Six1-Eya2 blk = -1.6; D2 agonist = -1.0; TRPML1 ag = -0.6
`O=C(O)c1cccc(S(=O)(=O)N(Cc2ccccc2)c2cccc(C(F)(F)F)c2)c1` is listed with PINK1 expr mod = -1.7%; TRPML1 inh = 7.6; D2 PAM = 2.6; Six1-Eya2 blk = -13.7; D2 agonist = -1.0; TRPML1 ag = 0.0
`O=Cc1ccc([B-](F)(F)F)s1` is listed with PINK1 expr mod = -0.2%; TRPML1 inh = 19.9; D2 PAM = nt; Six1-Eya2 blk = 5.2; D2 agonist = -2.5; TRPML1 ag = 0.5

The listing continues:
cpd	mol	PINK1 expr mod	TRPML1 inh	D2 PAM	Six1-Eya2 blk	D2 agonist	TRPML1 ag
11	O=C(NCc1ccccc1F)C1CCCN1C(=O)Nc1ccc(Cl)cc1 (stereo unspecified)	9.8%	9.6	-4.3	-0.3	0.0	3.7
12	CC(C)C(NC(=O)c1ccccc1F)C(=O)Nc1nccs1 (stereo unspecified)	0.0%	7.3	-23.9	2.8	7.4	3.0
13	Cc1ccc(CN(C(=O)COc2cccc([N+](=O)[O-])c2)c2ccccn2)cc1	-0.1%	41.4	nt	nt	nt	2.7
14	Cc1ccc(-c2nc(SCC(=O)c3c(N)n(C4CC4)c(=O)[nH]c3=O)n[nH]2)cc1	1.7%	-7.0	-9.2	2.2	-1.2	-0.2
15	CCOc1ccc(NC(=O)CSc2nnc(Cn3c(=O)sc4ccccc43)n2C)cc1	-3.4%	-0.7	0.4	0.1	-0.5	2.1
16	CNC(=S)SCCOc1ccccc1	0.4%	40.6	-5.1	3.0	-4.9	0.2
17	COc1ccc(OCc2ccc(-c3nc(C#N)c(N4CCC(C(N)=O)CC4)o3)o2)cc1	3.1%	0.4	nt	nt	nt	0.6
18	CC(=O)c1cccc(NC(=O)CSc2ccc(-c3cccnc3)nn2)c1	4.1%	-0.4	1.3	-2.8	-3.4	-0.6
19	NC(=O)C1CCN(C(=O)c2ccc3c(c2)N(Cc2cccc(Cl)c2)C(=O)c2ccccc2S3(=O)=O)CC1	1.4%	10.1	nt	nt	nt	0.0
20	COC1=C(N)C(=O)c2nc(-c3nc(C(=O)O)c(C)c(-c4ccc(OC)c(OC)c4O)c3N)ccc2C1=O	-0.5%	0.4	-44.4	?	-19.5	-0.3

Continued.
cpd	mol	PINK1 expr mod	TRPML1 inh	D2 PAM	Six1-Eya2 blk	D2 agonist	TRPML1 ag
21	CCC(C)(C)NC(=O)CN(Cc1ccccc1)C(=O)CCC(=O)Nc1nccs1	-2.2%	-5.0	2.1	8.1	1.3	0.7
22	COc1cccc(-c2cc(C(F)(F)F)nc(N3CCOCC3)n2)c1	-1.2%	-18.4	-1.8	52.8	-3.9	4.1
23	CC(=O)c1ccc(OCC(O)CN2CCOCC2)cc1 (stereo unspecified)	1.4%	-0.7	-12.2	-0.6	-4.4	0.6
24	COc1ccc(CC(=O)N/N=C(\C)c2cccc(NC(=O)C3CC3)c2)cc1	-0.5%	10.4	-17.9	-11.3	-2.6	2.7
25	CCn1c(Cc2cccs2)nnc1SCC(=O)Nc1ccc(OC)c(OC)c1	2.1%	-12.9	-7.3	0.3	2.2	-0.9
26	COc1cc(C(C)=O)ccc1OCC(O)CN1CCN(c2cc(C)cc(C)c2)CC1 (stereo unspecified)	2.4%	-10.4	-4.2	-13.3	3.8	-0.1
27	CCN(CCC#N)c1ccc(N2C(=O)CCCC2=O)cc1[N+](=O)[O-]	0.3%	6.7	-12.7	1.5	-3.0	-0.4
28	Cc1nn(Cc2cccc3ccccc23)c(C)c1NC(=O)c1cccnc1	-1.3%	18.4	-5.8	5.2	-0.9	3.9
29	Cc1ccccc1C(=O)Nc1cc(C(F)(F)F)ccc1-n1cncn1	1.9%	-9.1	-0.6	-0.7	-1.3	0.4
30	O=C(NCCCn1ccnc1)c1ccc(S(=O)(=O)N2CCOCC2)cc1	1.3%	4.7	-11.3	-3.4	-1.2	-0.2

(list continues)
cpd	mol	PINK1 expr mod	TRPML1 inh	D2 PAM	Six1-Eya2 blk	D2 agonist	TRPML1 ag
31	CCCc1cc(N2CCCC(C(=O)Nc3ccc(OC)cc3OC)C2)n2ncnc2n1 (stereo unspecified)	-0.3%[38.3 µM]	-9.8	-4.0	-6.7	3.4	1.6
32	CCC(C)C(NC(=O)C1CCC(C)CC1)C(=O)NC(CCSC)C(=O)OC (stereo unspecified)	0.3%	-8.5	-3.9	14.3	0.4	0.3
33	CC(C)C(O)P(=O)(OCc1ccccc1)c1ccc(N(C)C)cc1 (stereo unspecified)	-3.1%	3.7	-6.2	-0.3	-4.1	-0.1
34	COc1ncnc2c1ncn2CCCN1CCN(Cc2cccc3ccccc23)CC1	0.4%	nt	nt	-13.1	-3.1	nt
35	COc1ccc(CNCc2cc(OC)ccc2OC)cc1	-0.6%	nt	1.8	-1.4	0.3	nt
36	COc1ccc(/C=C/C(=O)OCC(=O)Nc2cc(C(N)=O)cc(C(N)=O)c2)cc1	-1.6%	-4.6	-4.4	-23.0	6.5	-0.6
37	Cc1cccc2sc(N(Cc3cccnc3)C(=O)c3ccco3)nc12	17.3%	-1.5	nt	nt	nt	1.0
38	CN(C)CCN(Cc1cc2cc3c(cc2[nH]c1=O)OCO3)C(=S)NCc1ccco1	4.2%	18.4	-1.2	-8.5	-6.0	0.3
39	COCCNc1cnn(-c2ccccc2)c(=O)c1Cl	-0.6%	-11.5	-1.3	9.9	-0.8	-0.3
40	CN1CCN(C(=O)c2cc(Cl)ccc2NC(=O)c2ccc(Cl)cc2Cl)CC1	0.5%	-10.5	-4.5	-0.6	-2.8	0.5

More records follow:
cpd	mol	PINK1 expr mod	TRPML1 inh	D2 PAM	Six1-Eya2 blk	D2 agonist	TRPML1 ag
41	CCOc1cccc(C(=O)Nc2ccc(NC(=O)c3ccccc3)c(C)c2)c1	-0.4%	11.2	-0.1	2.6	0.2	3.0
42	COCCNC(=O)CSc1nnc2[nH]c(=O)cc(C)n12	?	3.9	nt	nt	nt	0.4
43	Cc1ccc(C)c(-c2cc(C(=O)NNC(=S)NCC(C)C)c3ccccc3n2)c1	?	0.8	-29.3	-6.6	-14.8	2.2
44	COc1cccc(CNC(=O)C2CCCN(c3cnccn3)C2)c1 (stereo unspecified)	-0.8%	-18.7	-1.4	6.4	-4.9	-0.2
45	Oc1ccc(Cl)cc1C1=NCCNC(C(F)(F)C(F)F)=C1	-5.2%	1.0	-14.7	-5.9	-2.5	0.0
46	CN1CCN(c2nc3c(c(=O)n(C)c(=O)n3C)n2Cc2ccc(F)cc2)CC1	2.6%	6.7	-4.6	-7.4	-5.9	-0.2
47	CCOC(=O)C1CCN(C(=O)CC2(CC(=O)O)CCCC2)CC1	-0.5%	6.3	3.1	4.4	-2.1	-0.5
48	CC(=O)c1ccc(NC(=O)c2cc3c(=O)oc4ccc(C)cc4c3s2)cc1	0.0%	17.3	nt	nt	nt	-0.5
49	O=C(Nc1ccc(N2CCOCC2)cc1)C1CCCN(S(=O)(=O)c2cccc(C(F)(F)F)c2)C1 (stereo unspecified)	10.7%	0.4	1.3	4.1	-3.4	-0.6
50	COc1ccc(-c2csc(C(O)c3cccc(OC)c3)n2)cc1 (stereo unspecified)	4.4%	nt	-3.2	7.2	-2.9	-0.6
51	Nc1cc(C(=O)N2CCN(c3ccc([N+](=O)[O-])cc3)CC2)ccc1N1CC2CC(C1)c1cccc(=O)n1C2 (stereo unspecified)	0.2%	10.4	-2.8	-6.5	-4.6	-0.7
52	COc1ccc(Br)cc1CNCCSc1nnnn1C	1.7%	12.2	3.4	3.2	0.2	1.0
53	O=C(CC1NCCc2ccccc21)Nc1ccccc1Cl (stereo unspecified)	0.5%	2.7	-17.3	4.5	-0.7	-0.4

Screening results deposited in PubChem BioAssay by National Center for Advancing Translational Sciences (NCATS).
